Screening results: PubChem, several laboratories
Ecoli rRNA inh: inhibitors of bacterial rRNA selective over humanized ribosomes; E. coli WT GFP vs humanized-ribosome RFP mutants, fluorescence, 24 h; active compounds read low; DMSO median 0, no signal -100; GFP signal change (wild-type ribosome), % (test concentration not listed); 1.6% of 350,000 active;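 active means significant combined selectivity score with lowered wild-type GFP, culture density cut under 30%, mutant RFP and density less affected; inactive means any of these conditions unmet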; further: one replicate is shown; some compounds called inactive have numbers as strong as hits
Calb FLC: affects C. albicans growth with fluconazole. C. albicans CaCi-2 (fluconazole-resistant clinical isolate) + fluconazole, Alamar Blue growth, 48 h. growth inhibition, % (no concentration beside the values). 0.57% of 300,000 active. AID 1979;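 active means most replicates above 75%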;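 further: all wells also contain fluconazole at 8 µg/ml as a sub-toxic cotreatment; 0% = median of DMSO wells and 100% = median of geldanamycin control wells; wells of about 8 µL received 7.5 nL stock; the first replicate is given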
LANA-H2B inh: blocks KSHV LANA binding to histone H2A/H2B; cell-free LANA-H2A/H2B peptide, fluorescence polarization; inhibition, % (test concentration not listed); Q9QR71; 0.6% of 320,000 active; in the data active means inhibition mostly above about 10%, no sharp cut-off; inactive means mostly below about 6.7%;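 further: stock transfer was 7.5 nL into about 10 µL; 0% = median of vehicle wells and 100% = median of positive control wells; one replicate is shown; the record names a cut of 25% in any replicate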
Target sequence (Q9QR71 whole entry, looked up): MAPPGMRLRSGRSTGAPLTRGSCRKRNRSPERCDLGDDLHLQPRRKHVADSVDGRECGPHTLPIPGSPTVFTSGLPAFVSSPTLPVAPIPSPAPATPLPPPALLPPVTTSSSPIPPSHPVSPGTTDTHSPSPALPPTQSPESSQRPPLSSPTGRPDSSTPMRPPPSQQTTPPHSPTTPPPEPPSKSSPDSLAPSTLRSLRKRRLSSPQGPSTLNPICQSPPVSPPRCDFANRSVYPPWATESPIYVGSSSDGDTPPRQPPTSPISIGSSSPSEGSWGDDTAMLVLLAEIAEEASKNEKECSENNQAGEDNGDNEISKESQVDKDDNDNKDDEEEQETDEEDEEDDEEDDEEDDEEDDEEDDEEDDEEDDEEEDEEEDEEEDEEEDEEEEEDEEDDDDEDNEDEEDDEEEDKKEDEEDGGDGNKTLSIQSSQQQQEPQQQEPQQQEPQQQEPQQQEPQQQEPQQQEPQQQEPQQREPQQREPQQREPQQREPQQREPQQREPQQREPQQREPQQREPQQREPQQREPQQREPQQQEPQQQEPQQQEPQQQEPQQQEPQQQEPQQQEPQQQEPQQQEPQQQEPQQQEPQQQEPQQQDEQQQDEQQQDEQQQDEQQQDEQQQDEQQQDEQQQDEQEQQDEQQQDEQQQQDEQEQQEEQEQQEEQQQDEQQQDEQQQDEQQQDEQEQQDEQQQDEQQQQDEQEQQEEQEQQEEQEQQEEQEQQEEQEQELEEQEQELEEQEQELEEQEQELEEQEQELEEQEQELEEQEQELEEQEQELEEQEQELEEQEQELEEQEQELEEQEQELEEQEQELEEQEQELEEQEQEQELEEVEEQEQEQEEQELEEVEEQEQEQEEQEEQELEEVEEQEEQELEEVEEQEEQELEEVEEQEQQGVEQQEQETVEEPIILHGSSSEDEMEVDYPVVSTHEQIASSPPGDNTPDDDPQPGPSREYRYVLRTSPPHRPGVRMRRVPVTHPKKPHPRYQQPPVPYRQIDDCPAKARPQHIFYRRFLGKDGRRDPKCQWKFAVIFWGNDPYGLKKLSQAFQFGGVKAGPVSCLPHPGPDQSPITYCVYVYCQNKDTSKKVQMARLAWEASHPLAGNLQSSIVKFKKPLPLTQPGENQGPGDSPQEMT
ALR H2O2 inh: human ALR oxidase inhibition via reduced H2O2; P55789; purified ALR, DTT oxidation, H2O2 HRP-luminol luminescence; inhibition, % (concentration not given with the values); 3.8% of 290,000 active; AID 485317;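 active means mean and each replicate at 75% or more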;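 further: stock transfer was 7.5 nL into about 7.5 µL; 0% = neutral wells and 100% = wells with inactivated enzyme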
Bfl-1 A1 inh: inhibitors of the anti-apoptotic protein A1, read as caspase activation. caspase activation, % (test concentration not listed). MEF A1-2A-BIM cells, Caspase-Glo 3/7 luminescence, 3 h; percent of clofoctol response, vehicle zero. AID 2462. 0.066% of 330,000 active;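 active means over half of replicate activation scores above 10%, or exactly half above 10 with the replicate mean above 10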;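 further: wells of about 30 µL received 50 nL stock; many hits fall short of the cut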
Beta apoptosis: beta cell apoptosis inhibition; INS-1E cytokine-induced death, ATP luminescence, 48 h; percent of positive-control rescue, neutral wells zero; protection from apoptosis, % (no concentration beside the values); 0.8% of 300,000 active; AID 435005;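 active means all replicates at 75% or more, or half of them and the mean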;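 further: 0% = cytokine-treated negative control wells and 100% = positive control rescue; higher means more ATP so stronger rescue from cytokine killing; wells of about 40 µL received 100 nL stock; the first replicate is given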
Beta2AR agonist: agonists of human beta-2 adrenergic receptor inducing internalization. P07550. Am2.2-beta2AR cells, FAP receptor internalization, flow cytometry; reference of the scale not given here. response, % (no concentration beside the values). 0.43% of 340,000 active. AID 504454;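 active means response above a set limit, near 3 SD of response in nonfluorescent compounds, cut at about 42% in these data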;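 further: stock transfer was 100 nL into about 11 µL; a reference agonist was the positive control; negative values mostly stem from fluorescent compounds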
T cruzi inh: T. cruzi replication inhibition; 1.4% of 300,000 active; inhibition, % (test concentration not listed); T. cruzi beta-gal in NIH3T3, luminescence, 90 h;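 active means mean inhibition across valid replicates above about 55%, limit read from the data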;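 further: signal also drops with host cell toxicity which is not excluded here; 0% = plate median of DMSO wells and 100% = zero luminescence signal; higher percent means less beta-gal luminescence so fewer parasites; stock transfer was 50 nL into about 50 µL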
Ecoli rRNA inh OD600: second read-out of Ecoli rRNA inh, no call of its own (marks repeat the call); OD600 change, %; measured here: OD600 growth;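 optical density of the mix in the first replicate; 0 = DMSO median and -100 = no signal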
Ecoli rRNA inh RFP: further read-out of Ecoli rRNA inh, marked with its call; RFP signal change, %; measured here: RFP humanized mutant strains;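 first replicate; 0 = DMSO median and -100 = no signal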
Active calls of the source: *; · = not tested or not shown.

no.	Compound	Ecoli rRNA inh	Ecoli rRNA inh OD600	Ecoli rRNA inh RFP	Calb FLC	LANA-H2B inh	ALR H2O2 inh	Bfl-1 A1 inh	Beta apoptosis	Beta2AR agonist	T cruzi inh
1	O=C(/C=C/c1ccc2c(c1)OCO2)N1CCN(c2ccccc2F)CC1	5	2	1.4	-2	5.6	-1	-0.9	2	-4	0
2	COc1ccc(/C=N/Nc2ccccc2C(=O)O)cc1Cn1cc([N+](=O)[O-])cn1	4	2	-5.2	-8	-1.6	·	1.9	-3	4	4
3	CC(=O)N/C(=C/c1ccccc1)C(=O)N1CCCCC1	·	·	·	-14	-2.6	11	2.7	-1	-2	-4
4	COc1ccc(CNC(=O)C2CC(c3ccccc3C(F)(F)F)=NO2)cc1 (centres undefined)	-20	-13	-4.0	-3	-2.4	4	-0.1	-1	-4	-11
5	Cc1nc(CCNC(=O)CC2C(=O)NCCN2CC(C)C)nc2c1CCC2 (centres undefined)	9	19	2.9	-9	0.8	-1	-0.1	3	3	0
6	CCc1ccc2c(CN(CC)Cc3nc4ccccc4c(=O)[nH]3)cc(=O)oc2c1	·	·	·	-7	-0.2	-3	-0.3	-2	25	-18
7	O=C(Nc1ccccc1N1CCCCC1)c1ccc2nccnc2c1	·	·	·	-12	0.5	-7	-1.0	-2	-31	15
8	Cc1sc(NC(=O)CSc2nc(O)cc(=O)[nH]2)nc1-c1ccccc1	7	-1	4.8	-5	-1.3	99*	0.1	-1	-3	-11
9	CC(=O)c1cccc(OC(=O)c2ccc3c(=O)n4c(nc3c2)CCC4)c1	·	·	·	4	-0.8	6	-0.9	3	11	-13
10	Cc1ccc(CN2CCN(CC(=O)N/N=C/c3c[nH]c4ccccc34)CC2)cc1	·	·	·	1	1.2	-2	-0.5	1	8	2
11	c1ccc(CSc2nnnn2-c2ccccc2)cc1	·	·	·	-2	-2.2	-5	1.5	·	-3	-2
12	CC(=O)N1c2ccc(S(=O)(=O)N(C)Cc3ccccc3)cc2CC1C (centres undefined)	-7	-13	1.7	-20	0.9	2	-0.1	3	24	1
13	COc1ccc(C2CC(c3ccccc3)=NN2c2ccccc2)c(C(=O)O)c1OC (centres undefined)	-10	-4	-2.2	-32	3.2	99*	-1.9	-6	7	-23
14	COc1ccc(OC)c(/C=C/C(=O)NCCc2nc3ccccc3[nH]2)c1	·	·	·	-9	-2.1	-8	-0.2	-4	-2	9
15	CCc1ccc(CN2CCCC(C(=O)N3CCCCC3)C2)cc1 (centres undefined)	10	0	-2.8	-9	-3.1	·	0.8	-5	-2	50
16	CCc1cccc(C)c1NC(=O)CCCN1C(=O)CN(C)C1=O	5	4	0.3	·	1.1	4	-0.1	2	4	·
17	COc1ccc(N2C(=O)CC(NC3CC3)C2=O)cc1 (centres undefined)	·	·	·	0	-1.0	-2	0.0	-6	-1	38
18	COc1cc(NS(=O)(=O)c2ccc(NC(=S)Nc3ccccc3)cc2)nc(OC)n1	9	-2	-1.0	11	-2.9	·	-1.6	1	10	-5
19	Cc1cc(C)cc(C(=O)NC(CC(N)=O)c2ccc(N3CCN(c4ccccc4)CC3)c([N+](=O)[O-])c2)c1 (centres undefined)	0	16	12	-17	-1.5	2	0.0	-15	-2	-4
20	Cc1cc(NCCCN(C)C)n2nc(-c3cccs3)cc2n1	·	·	·	10	1.2	-18	-0.8	-4	0	16
21	Cc1ccc(-c2nn(-c3ccccc3)cc2/C=C/C(=O)Nc2cccc(S(N)(=O)=O)c2)cc1	-1	0	5.0	-3	-7.4	·	2.4	120*	27	17
22	CC1(C)Cc2c(c(N3CCOCC3)nc3sc(-c4ccc(C(=O)O)o4)c(N)c23)CO1	·	·	·	-8	0.7	50	-0.1	4	-23	-4
23	O=C(COc1ccc(F)cc1)Nc1nnc(C2CC2)s1	2	7	-1.2	-7	0.8	2	0.0	-1	-3	-4
24	CCCc1cc(=O)[nH]c(SCC(=O)Nc2ncc(S(=O)(=O)c3ccc([N+](=O)[O-])cc3)s2)n1	14	3	-0.7	2	4.1	-8	0.9	-4	5	0
25	S=C(NCc1ccco1)N1CCN(Cc2ccco2)CC1	·	·	·	-14	5.4	-16	0.2	1	-8	-8
26	CCOC(=O)c1cnn(-c2ccc(NS(=O)(=O)c3ccc(Cl)cc3)cc2)c1C(F)(F)F	-24	-21	28	10	0.4	-10	-0.3	9	4	-12
27	CCC(C)[C@H](NC(=O)OC(C)(C)C)C(=O)N/N=C/c1cccc2nccnc12 (some centres undefined)	-6	-16	2.7	-36	2.9	·	-0.4	-16	2	-20
28	COC(=O)c1ccc(COC(=O)CNC(=O)c2cccc(OC)c2)o1	3	11	-1.1	·	3.1	1	0.1	0	1	·
29	COc1ccc(CNC(=O)C(C)OC(=O)c2cccs2)cc1 (centres undefined)	3	-10	-1.4	0	-1.8	2	-0.8	0	11	-4
30	COc1ccccc1CCC(=O)OCC(=O)Nc1ccc(S(N)(=O)=O)cc1	-7	-10	6.5	-4	-11	-9	0.3	-9	1	-4
31	Cn1nc(C(F)(F)F)c(-c2ccccc2)c1N	·	·	·	1	-3.6	-1	0.4	-2	-3	-10
32	COCCn1c(C)cc(C(=O)COC(=O)c2ccc(Br)o2)c1C	5	-9	1.9	32	-0.4	4	-0.1	0	10	5
33	O=C(Cn1c(=O)oc2ccccc21)Nc1ccccc1N1CCOCC1	0	8	-2.0	2	-0.4	-7	-0.8	-5	5	-6
34	Brc1ccc(-c2cn3c(n2)SCC3)cc1	-24	-22	-8.5	-32	-3.2	9	0.0	-3	-11	5
35	Cc1ccc(S(=O)(=O)NNC(=O)C2COc3ccccc3O2)cc1 (centres undefined)	·	·	·	23	-1.9	15	0.8	-3	-5	20
36	Fc1ccc(C2=CC(c3ccc(Br)o3)n3ncnc3N2)cc1 (centres undefined)	·	·	·	·	20	·	0.7	-7	-14	·
37	CCOc1ccc(C)cc1-n1nc2ccccc2n1	·	·	·	-5	-3.0	7	0.9	-4	-1	-15
38	CCN1CCC2(CC1)N=C(c1ccc(F)cc1)C(=S)N2C(=O)c1ccc(C(C)(C)C)cc1	-15	-11	8.8	1	-0.5	·	0.7	-4	18	29
39	COc1ccccc1NC(=O)C1C2C=CC(O2)C1C(=O)O (centres undefined)	·	·	·	0	7.4	-3	-0.2	-1	·	-5
40	CCOc1ccccc1NC(=O)Nc1cc(OC)ccc1OC	·	·	·	47	1.1	-21	3.1	4	-6	21
41	Cc1cccc(/N=C/c2c(O)[nH]c3ccccc23)n1	·	·	·	55	6.1	42	-6.5	·	14	9
42	Cc1ccc(S(=O)(=O)Cc2ccc(C(=O)N3CCC(C)CC3)cc2)cc1	9	0	2.4	3	1.5	-1	0.7	4	-7	1
43	CC(CC(=O)OCC(=O)NC1CCS(=O)(=O)C1)c1ccccc1 (centres undefined)	1	2	4.3	·	-0.8	-3	1.1	7	2	·
44	CCc1ccc(C(C(=O)NC2CCCCC2)N(C(=O)c2csnn2)C2CC2)cc1 (centres undefined)	4	10	1.6	-1	-0.1	1	0.1	4	-6	-6
45	Cc1cccc(N(C(=O)Cc2cccs2)C(C(=O)NCc2ccco2)c2ccncc2)c1 (centres undefined)	-4	-8	0.0	-2	-1.4	-3	0.4	3	-9	8
46	Cc1nc2c(C#N)cnn2c2c1CCN(Cc1ccccc1)N2C	8	11	4.5	-9	1.7	-15	1.0	2	-3	0
47	COC(=O)CSc1nnc(-c2ccc(S(=O)(=O)N3CCCCC3)cc2)o1	·	·	·	4	1.4	2	-0.6	-6	3	-6
48	Cc1cccc(C)c1NC(=O)CCN1C(=O)C2C3CCC(C3)C2C1=O (centres undefined)	·	·	·	-8	-3.2	-3	-0.7	5	0	-7

7 neighbouring records from above, for reference:
no.	Compound	Ecoli rRNA inh	Ecoli rRNA inh OD600	Ecoli rRNA inh RFP	Calb FLC	LANA-H2B inh	ALR H2O2 inh	Bfl-1 A1 inh	Beta apoptosis	Beta2AR agonist	T cruzi inh
39	COc1ccccc1NC(=O)C1C2C=CC(O2)C1C(=O)O (centres undefined)	·	·	·	0	7.4	-3	-0.2	-1	·	-5
40	CCOc1ccccc1NC(=O)Nc1cc(OC)ccc1OC	·	·	·	47	1.1	-21	3.1	4	-6	21
41	Cc1cccc(/N=C/c2c(O)[nH]c3ccccc23)n1	·	·	·	55	6.1	42	-6.5	·	14	9
42	Cc1ccc(S(=O)(=O)Cc2ccc(C(=O)N3CCC(C)CC3)cc2)cc1	9	0	2.4	3	1.5	-1	0.7	4	-7	1
43	CC(CC(=O)OCC(=O)NC1CCS(=O)(=O)C1)c1ccccc1 (centres undefined)	1	2	4.3	·	-0.8	-3	1.1	7	2	·
44	CCc1ccc(C(C(=O)NC2CCCCC2)N(C(=O)c2csnn2)C2CC2)cc1 (centres undefined)	4	10	1.6	-1	-0.1	1	0.1	4	-6	-6
45	Cc1cccc(N(C(=O)Cc2cccs2)C(C(=O)NCc2ccco2)c2ccncc2)c1 (centres undefined)	-4	-8	0.0	-2	-1.4	-3	0.4	3	-9	8

(list continues)
no.	Compound	Ecoli rRNA inh	Ecoli rRNA inh OD600	Ecoli rRNA inh RFP	Calb FLC	LANA-H2B inh	ALR H2O2 inh	Bfl-1 A1 inh	Beta apoptosis	Beta2AR agonist	T cruzi inh
49	Cc1cc(C)c(OCCOCCN2CCN(C)CC2)c(Cl)c1	4	-4	1.4	-4	-7.2	-7	-0.5	1	-4	51
50	O=C(O)c1ccc(Cn2c(=S)[nH]c3cc(Cl)ccc3c2=O)cc1	-2	-2	0.1	-2	2.1	95*	0.4	-5	3	-2
51	COC(=O)c1c(NC(=O)COC(=O)CCNS(=O)(=O)c2ccccc2)sc(C)c1C	-3	-17	3.7	1	0.5	1	-1.7	·	8	1
52	COc1ccc(C)cc1NC(=O)C1CCCN1S(=O)(=O)c1ccccc1F (centres undefined)	-3	-1	-0.1	·	-1.3	0	2.0	-7	6	·

Only part of the results is shown; count on the stated rates, not on these rows.
